VDR inh = inhibitors of human vitamin D receptor; VDR-SRC2-3 peptide fluorescence polarization, 2 h; P11473; hit rate 0.93% among 400,000; Potency, µM, for the others: max response, negative = inhibition, usual class: inhibitors; active = well fitted inhibition curve with a large enough effect; inconclusive = small, poorly fitted or top-dose-only effect, or another doubt; inactive = no such curve, though single readings can be large or run the other way; also: series mostly up to about 120 µM
Target sequence (P11473 whole entry, looked up): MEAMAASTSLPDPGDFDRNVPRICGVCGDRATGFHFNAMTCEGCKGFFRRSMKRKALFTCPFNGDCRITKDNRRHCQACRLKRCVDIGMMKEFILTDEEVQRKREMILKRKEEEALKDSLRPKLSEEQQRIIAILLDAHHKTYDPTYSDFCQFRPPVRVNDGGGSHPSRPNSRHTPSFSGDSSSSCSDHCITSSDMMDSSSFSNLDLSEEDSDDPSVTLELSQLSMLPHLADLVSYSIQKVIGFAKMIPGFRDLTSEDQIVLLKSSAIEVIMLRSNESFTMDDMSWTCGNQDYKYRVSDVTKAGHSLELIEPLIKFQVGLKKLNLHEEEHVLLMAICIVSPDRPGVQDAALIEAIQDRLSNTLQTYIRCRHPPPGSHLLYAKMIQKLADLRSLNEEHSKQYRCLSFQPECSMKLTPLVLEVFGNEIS
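Compounds are added to VDR with labelled SRC2-3 coactivator peptide and held 2 h at room temperature. Inhibition of the VDR–peptide interaction is then read as a change in fluorescence polarization.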
The depositor's hits bear a star; ? = inconclusive. % is scaled to controls: 0 for no effect and ±100 for the full control effect; potency is read from the fitted curve at half-maximal effect.

| # | VDR inh | mol |
| --- | --- | --- |
| 1 | -6% | COc1ccc(COC(=O)N/N=C(\C)CC(=O)Nc2ccc(Cl)cn2)cc1 |
| 2 | -3% | N#CCSc1ccc(S(=O)(=O)N2CCOCC2)cn1 |
| 3 | -3% | CS(=O)(=O)N1CCC2(CCN(c3ccccn3)CC2)CC1 |
| 4 | 10% | COc1ccc(CN2CCN(C(=O)c3cccc(OC)c3OC)CC2)cc1OC |
| 5 | -16% | COc1ccccc1C1c2c(-c3ccc(Cl)cc3)n[nH]c2C(=O)N1c1ccc(C)cc1 (stereo not given) |
| 6 | 9% | CCOC(=O)N1CCN(C(=O)CN(c2cc(Cl)ccc2OC)S(=O)(=O)c2ccccc2)CC1 |
| 7 | -12% | CC(C)C(OC(=O)c1ccco1)C(=O)NCc1ccc2c(c1)OCO2 (stereo not given) |
| 8 | 5% | O=C(NCC(c1ccco1)N1CCc2ccccc21)c1ccc([N+](=O)[O-])cc1 (stereo not given) |
| 9 | 10% | COc1ccccc1NS(=O)(=O)c1ccc(C(=O)OCC(=O)NCc2ccco2)cc1 |
| 10 | 8% | N#CCCCS(=O)(=O)c1nnnn1C1CCCCC1 |
| 11 | 1% | CCC(=O)N1CCc2cc(S(=O)(=O)CCC(=O)N3CCN(c4ccccc4)CC3)ccc21 |
| 12 | -8% | CC1CN(C(=O)c2ccc(COc3ccc(C(C)C)cc3)o2)CC(C)O1 (stereo not given) |
| 13 | -11% | CCCCOc1ccc(C(=O)N/C(=C\c2ccc(Br)cc2)C(=O)NC2CCCCC2)cc1 |
| 14 | -7% | Cc1cccc(Nc2c([N+](=O)[O-])c(=O)oc3ccccc23)c1 |
| 15 | -9% | CC(C)NC(=O)Cn1cc(C(=O)COc2ccccc2)c2ccccc21 |
| 16 | 7% | CCOc1cccc(C2c3[nH]c4ccccc4c3CCN2C(=O)Cc2cccc(OCC)c2OCC)c1 (stereo not given) |
| 17 | 6% | Brc1cc2c(cc1/C=N/Nc1nc(N3CCCC3)nc(N3CCOCC3)n1)OCO2 |
| 18 | -7% | O=C(Cn1ncc2c1-c1ccccc1OC2)Nc1ccc(Cl)cn1 |
| 19 | -7% | COc1cccc(-c2sc3ccc(OC)cc3c2-c2cc(F)cc(OC)c2)c1 |
| 20 | 11% | Clc1ccc2nc(COc3ccccc3)[nH]c2c1 |
| 21 | 2% | CC(C)N(Cc1ccccc1)C(=O)CN1C(=O)NC2(CCCC2)C1=O |
| 22 | 4% | O=S(=O)(NC1CCCC1)c1ccc(S(=O)(=O)N(Cc2cccs2)CC2CCCO2)cc1 (stereo not given) |
| 23 | -9% | COc1ccc(-c2nc3ccc(NS(=O)(=O)c4ccccc4)cc3o2)cc1 |
| 24 | -1% | O=C(CNS(=O)(=O)c1cccc2nsnc12)NCc1ccc(Cl)cc1 |

Gathered by group: the entries above with an NH in an aromatic ring
| # | VDR inh | mol |
| --- | --- | --- |
| 5 | -16% | COc1ccccc1C1c2c(-c3ccc(Cl)cc3)n[nH]c2C(=O)N1c1ccc(C)cc1 (stereo not given) |
| 16 | 7% | CCOc1cccc(C2c3[nH]c4ccccc4c3CCN2C(=O)Cc2cccc(OCC)c2OCC)c1 (stereo not given) |
| 20 | 11% | Clc1ccc2nc(COc3ccccc3)[nH]c2c1 |

Remaining list, next part:
| # | VDR inh | mol |
| --- | --- | --- |
| 25 | -13% | NC(=O)c1c(Nc2nc3c(F)cccc3s2)sc2c1CCCC2 |
| 26 | -5% | Cc1ccc2nc3c(cc(C#N)c(=O)n3-c3nnc(SCc4ccc(F)cc4)s3)c(=O)n2c1 |
| 27 | -10% | Cc1sc(NC(=O)CCCC(=O)O)c(C(N)=O)c1-c1ccccc1 |
| 28 | -6% | COc1ccc(C(=O)C2CCCN(Cc3ccc(Sc4nncn4C)o3)C2)cc1F (stereo not given) |
| 29 | -9% | CN(C(=O)c1cccc(S(=O)(=O)N2CCOCC2)c1)c1c(N)n(Cc2ccccc2)c(=O)[nH]c1=O |
| 30 | -1% | CC1=C(C#N)C(=O)NC(C)(C)C1 |
| 31 | ? | S=c1[nH]c(-c2ccc(Cl)cc2)cs1 |
| 32 | -7% | CCOc1cc2c(cc1OCC)C(c1ccccc1OC)OC(=O)C2 (stereo not given) |
| 33 | -4% | CN(Cc1ccccc1)C(=O)c1cn(C)c2ccc(S(=O)(=O)N3CCCCC3)cc2c1=O |
| 34 | 6% | CC(C)CN(CC(C)C)C(=S)Nc1ccc(Cl)cc1 |
| 35 | -3% | CCN1CCN(c2ccc(S(=O)(=O)N3CCCCC3)cc2NC(=O)c2ccccc2)CC1 |
| 36 | -4% | COc1ccc(-c2nc(CS(=O)CC(=O)N3CCN(C)CC3)c(C)o2)cc1 (stereo not given) |
| 37 | -6% | COC(=O)CCCC(=O)N1CCOCCN(C(=O)CCCC(=O)OC)CCOCC1 |
| 38 | 7% | Fc1ccc(NC(=S)N2N=CCC2c2ccccc2)cc1 (stereo not given) |
| 39 | 5% | Cc1oc(-c2cccc(Br)c2)nc1CN1CCC(C(=O)NCc2ccccc2)CC1 |
| 40 | -25% | Cc1ccc(/C=C/C(=O)Nc2ccc(N(C)C)cc2)o1 |
| 41 | 3% | Cc1cc(S(=O)(=O)N2CCCOC2CNC(=O)C(=O)NCCc2ccco2)ccc1F (stereo not given) |
| 42 | -13% | CCn1c(-c2cc(C3CC3)nc3ccccc23)n[nH]c1=S |
| 43 | -22% | CCCOc1ccc(OCCn2nc(C(=O)O)c3ccccc3c2=O)cc1 |
| 44 | 5% | Cc1ccc(/C=C/C(=O)OCC(=O)c2ccc3c(c2)NC(=O)CO3)o1 |
| 45 | -2% | COc1ccccc1NC(=O)CC1C(=O)NCCN1C(=O)Nc1ccccc1 (stereo not given) |
| 46 | -8% | Cc1ccc(S(=O)(=O)NC(CC(=O)O)c2cccs2)cc1 (stereo not given) |
| 47 | 1% | COc1ccc(-c2cc(C(=O)NCc3ccco3)no2)cc1OC |
| 48 | 4% | Cc1ccc(C)c(NC(=O)CSc2nnc(-c3ccncc3)n2N)c1 |
| 49 | ? | COc1cc(OC)c(OC)cc1/C=C1/C(=O)N=C(N)N1C |
| 50 | -3% | CN(CC(=O)NCc1ccc2c(c1)OCO2)CC(=O)Nc1ccc(F)c(F)c1F |
| 51 | 13% | COc1ccc(OCC(=O)Nc2ccc3oc(=O)ccc3c2)cc1 |
| 52 | -6% | Cc1ccc(O)c(C(=O)c2cnn(C(=O)Cc3csc(C)n3)c2)c1 |
| 53 | 1% | Oc1ccc(Cl)cc1C(C#Cc1ccccc1)N1CCOCC1 (stereo not given) |
| 54 | -14% | CCc1cc(=O)oc2cc(C)cc(OCC(C)=O)c12 |
| 55 | 24% | COc1cc(OC)c(C(=O)N/N=C/c2ccoc2)cc1OC |
| 56 | -7% | Cc1nnc2c3ccccc3c(-c3cccc4ccccc34)nn12 |
| 57 | -20% | O=C(Nc1cccc(S(=O)(=O)NC2=NCCC2)c1)c1cc(-c2ccco2)nc2ccccc12 |
| 58 | 10% | CCOC(=O)c1sc(=S)n(-c2ccc(Cl)cc2)c1C |
| 59 | 4% | N/C(=N\OC(=O)c1ccc2c(c1)OCO2)c1cccc([N+](=O)[O-])c1 |
| 60 | -7% | Nn1c(SCC(=O)N2CCCc3ccccc32)nnc1-c1ccccc1 |
| 61 | -5% | C=CCn1c(COc2ccc(OC)cc2)nnc1SC(C)C(=O)NC1CC1 (stereo not given) |
| 62 | 2% | CN(C)C(CNC(=O)c1cccc(S(=O)(=O)N2CC3(C)CC2CC(C)(C)C3)c1)c1ccco1 (stereo not given) |
| 63 | -3% | Cc1nc(-c2cc(-c3nc(-c4cc(C(F)(F)F)cc(C(F)(F)F)c4)no3)no2)cs1 |
| 64 | -8% | C[C@H]1CN=C(N(C)C)N1CCc1cccc(F)c1 |
| 65 | 18% | COc1ccc(S(=O)(=O)NCc2ccccn2)cc1NC(=O)c1ccc(C)cc1 |
| 66 | -1% | C=CCN(C(=O)c1csnn1)C(C(=O)NC1CCCCC1)c1ccc(Cl)cc1 (stereo not given) |
| 67 | 17% | O=C(O)c1ccc(CSc2nnc(COc3ccc(Cl)cc3Cl)o2)cc1 |
| 68 | 7% | C/C(=C\c1ccccc1)CN1CCN(c2cccc(Cl)c2)CC1 |
| 69 | 4% | CCn1c(CNC(=O)C23CC4CC(CC(C4)C2)C3)nnc1SCC(=O)Nc1ccc(F)cc1 |
| 70 | -6% | Nc1c(S(=O)(=O)c2cc(Cl)ccc2Cl)c2nc3ccccc3nc2n1CCN1CCOCC1 |
| 71 | 11% | CCc1ccc(S(=O)(=O)Nc2ccc(O)c3c(=O)cc(-c4ccccc4Cl)oc23)cc1 |
| 72 | -8% | CC(C)NC(=O)Cn1cnc2c(cnn2-c2ccc(F)cc2)c1=O |

Some of the entries above, set out differently:
#4 COc1ccc(CN2CCN(C(=O)c3cccc(OC)c3OC)CC2)cc1OC
  VDR inh: 10%

#33 CN(Cc1ccccc1)C(=O)c1cn(C)c2ccc(S(=O)(=O)N3CCCCC3)cc2c1=O
  VDR inh: -4%

More entries follow:
| # | VDR inh | mol |
| --- | --- | --- |
| 73 | 0% | O=c1oc2ccccc2cc1-c1csc(Nc2ccc(O)cc2)n1 |
| 74 | -3% | CC1(C)CCC=[N+]1[O-] |
| 75 | -10% | COc1cccc(-n2nnc3c(=O)n(CC(=O)Nc4cc(C)on4)cnc32)c1 |
| 76 | 3% | COCCN(CCOC)C(=O)c1cc2sc3ccccc3c2s1 |
| 77 | -17% | COc1cccc(-n2nnc3c(=O)n(CC(=O)N4CCCc5ccccc54)cnc32)c1 |
| 78 | -4% | O=C(NCCCCCNC(=O)c1cccnc1)c1cccnc1 |
| 79 | 20% | Cc1oc(-c2ccccc2)nc1C(=O)OCC(=O)NCc1ccccc1 |
| 80 | -17% | COc1ccc(CCNC(=O)COC(=O)c2cc(=O)[nH]c3ccccc23)cc1 |
| 81 | 12% | CC1=C(c2ccccc2)[N+](=O)C2(CCCCC2)N1[O-] |
| 82 | -14% | NNC(=O)c1cncn1-c1ccc(F)cc1 |
| 83 | 15% | O=C(COC(=O)c1cccc(S(=O)(=O)N2CCOCC2)c1)Nc1ncc(C(F)(F)F)cc1Cl |
| 84 | -15% | O=C(NCc1cccnc1)NC(=O)c1ccc(Cl)cc1 |

Results in sequence from the list:
Nos. 73–84 in VDR inh read 0%, -3%, -10%, 3%, -17%, -4%, 20%, -17%, 12%, -14%, 15%, -15%

Returning to the listing, starting 5 compounds before the break.
| # | VDR inh | mol |
| --- | --- | --- |
| 80 | -17% | COc1ccc(CCNC(=O)COC(=O)c2cc(=O)[nH]c3ccccc23)cc1 |
| 81 | 12% | CC1=C(c2ccccc2)[N+](=O)C2(CCCCC2)N1[O-] |
| 82 | -14% | NNC(=O)c1cncn1-c1ccc(F)cc1 |
| 83 | 15% | O=C(COC(=O)c1cccc(S(=O)(=O)N2CCOCC2)c1)Nc1ncc(C(F)(F)F)cc1Cl |
| 84 | -15% | O=C(NCc1cccnc1)NC(=O)c1ccc(Cl)cc1 |
| 85 | -19% | O=C1C(=O)N(CCCN2CCOCC2)C(c2ccc(F)cc2)/C1=C(/O)c1ccccc1 (stereo not given) |
| 86 | 27% | CCOc1ccccc1NC(=S)NCc1ccccc1 |
| 87 | 9% | C=CCn1c(SCC(=O)NCCO)nc2sc(C)c(C)c2c1=O |
| 88 | 5% | C=CCOc1ccccc1CN1CCC(Oc2ccc(C(=O)N3CCCC3)cc2)CC1 |
| 89 | 5% | O=C(CCc1ccc(S(=O)(=O)N2CCOCC2)cc1)Nc1c(F)cccc1F |
| 90 | -2% | O=C1CCCN1CCCNc1nc2c(S(=O)(=O)c3ccc(Br)cc3)nnn2c2ccccc12 |
| 91 | 6% | O=C(Nc1ccc(F)cc1)c1cc(-c2ccccn2)nc2c(Cl)cccc12 |
| 92 | -8% | Cn1cc(S(=O)(=O)NC[C@H]2O[C@@H](n3cnc4c(N)ncnc43)[C@H](O)[C@@H]2O)cn1 |
| 93 | -5% | Cc1occc1C(=O)NNC(=O)c1ccccc1F |
| 94 | 5% | COC(=O)c1ccc(NC(=O)COc2ccccc2OC)cc1 |
| 95 | 3% | COC(=O)c1ccc(CSc2nc3ccccc3s2)o1 |
| 96 | -4% | COC(=O)c1ccc(NC(=S)N2CCN(C(=O)c3ccco3)CC2)cc1 |
| 97 | 3% | Cc1nc(C)c(-c2ccn(S(=O)(=O)c3ccc(Cl)cc3)n2)o1 |
| 98 | -3% | O=C(OCC(=O)c1ccccc1Br)c1ccccn1 |
| 99 | 16% | CC12CCC(C(=O)NCCCN3CCOCC3)(C(Br)C1=O)C2(C)C (stereo not given) |
| 100 | 16% | COc1ccc(N2CC(C(=O)Nc3c4c(nn3-c3ccc(OC)cc3)CS(=O)(=O)C4)CC2=O)cc1 (stereo not given) |
| 101 | -13% | C/C(N)=C(/C#N)C(=O)COC(=O)C(c1ccccc1)c1ccccc1 |
| 102 | -17% | Cc1nc(CS(=O)c2ccc(Cl)cc2)cc(N2CCOCC2)n1 (stereo not given) |
| 103 | -6% | N#C/C(=C\c1ccc(Cl)s1)C(=O)N1CCN(c2ccccc2)CC1 |
| 104 | -6% | CCOc1cc(N2CCOCC2)c(OCC)cc1NC(=O)c1ccc(OC(C)C)cc1 |

Not all compounds are listed, so the mix of outcomes need not match the whole.
